Assay outcomes deposited in PubChem BioAssay by National Center for Advancing Translational Sciences (NCATS).
2A StopGo: FMDV 2A StopGo reporter, luciferase signal | human cells with a luciferase reporter of 2A StopGo recoding; control for the full effect not named in the record | Potency, µM (top dose mostly 57.9 µM), inactives show at the top dose signal change, negative = less light | hit rate 1.2% among 410,000 | AID 1159524; active = well fitted falling curve with a large enough effect; inconclusive = small, poorly fitted or top-dose-only effect; inactive = no such curve, though single readings can be large or run the other way; tested in HEK293T cells; also: % is scaled to controls: 0 for no effect and ±100 for the full control effect; nearly all actives have a fitted effect of over 45% in size; luciferase light after 4 h
RE007 growth inh: less growth of the S. pombe RE007 Vpr strain; S. pombe RE007 Vpr strain, BacTiter-Glo ATP luminescence, 24 h; control for the full effect not named in the record; Potency, µM (highest dose often 92.2 µM), for the others: top-dose activity change, negative = less growth; hit rate 0.21% among 360,000; AID 651644; active = well fitted falling curve with a large enough effect; inconclusive = small, poorly fitted or top-dose-only effect; inactive = no such curve, though single readings can be large or run the other way;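 also: % is scaled to controls: 0 for no effect and ±100 for the full control effect; nearly all actives have a fitted effect of over 50% in size; the assay follows cell death caused by Vpr and the record does not say whether a fall means rescue or toxicity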
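Fission yeast RE007 carrying one integrated HIV-1 vpr copy, seeded at OD 0.01 in PMG+AL medium with 23 nL pinned compound. Grown 24 h at 30 degrees; viability read by BacTiter-Glo luminescence after 5 min.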
Cruzain Triton: inhibitors of Trypanosoma cruzi cruzain with detergent; P25779; purified cruzain, Z-FR-AMC fluorescence, 0.01% Triton; Potency, µM, for the others: max response, negative = inhibition, most hits filed as inhibitors; hit rate 0.43% among 200,000;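 also: plate controls were neutral wells for no effect and buffer without enzyme for full effect; nearly all actives have a fitted effect of over 40% in size; top concentration of the series not given in the record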
Target sequence (P25779 123-467 limits assumed): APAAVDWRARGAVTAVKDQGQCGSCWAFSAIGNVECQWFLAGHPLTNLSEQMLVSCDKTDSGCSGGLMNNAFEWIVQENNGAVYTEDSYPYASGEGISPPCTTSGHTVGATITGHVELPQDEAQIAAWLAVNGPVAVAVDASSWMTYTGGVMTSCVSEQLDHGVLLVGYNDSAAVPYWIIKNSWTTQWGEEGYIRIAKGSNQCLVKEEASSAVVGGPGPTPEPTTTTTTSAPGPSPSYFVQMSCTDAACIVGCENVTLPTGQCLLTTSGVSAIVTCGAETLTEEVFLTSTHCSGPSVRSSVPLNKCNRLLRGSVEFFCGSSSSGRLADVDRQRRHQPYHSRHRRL
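Purified cruzain (1.5 nM final) was preincubated with compounds for 15 min at room temperature in 100 mM sodium acetate pH 5.5, 5 mM DTT, 0.01% Triton X-100. Reaction started with 2 uM Z-FR-AMC; AMC fluorescence change over 60 s gave activity.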
Cruzain noTriton: blocks cruzain activity in detergent-free assay. P25779. purified cruzain, Z-FR-AMC fluorescence, no detergent. Potency, µM, without a hit: max response, negative = inhibition, usual class: inhibitors. hit rate 2.3% among 200,000;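 also: plate controls were enzyme without inhibitor for no effect and buffer without enzyme for full effect; nearly all actives have a fitted effect of over 40% in size; top concentration of the series not given in the record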
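Purified cruzain at 1.5 nM, pre-incubated 15 min with compound at room temperature in 100 mM sodium acetate pH 5.5, 5 mM DTT, 0.00005% Triton X-100. Reaction started with 2 uM Z-FR-AMC; AMC fluorescence increase over 60 s gives rate.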
SARS PLpro yeast: blocks SARS-CoV papain-like protease in a yeast assay. AID 485353. hit rate 0.19% among 330,000. S. cerevisiae expressing SARS-CoV PLpro, growth rescue; control for the full effect not named in the record. Potency, µM (titrated, usually from 32.9 µM), for inactives: top-dose activity, positive = growth rescue; active means well fitted rising curve with a large enough effect; inconclusive means small, poorly fitted or top-dose-only effect; inactive means no such curve, though single readings can be large or run the other way; also: 0% is about no effect; nearly all actives have a fitted effect of over 55% in size; growth read by luminescence after 48 h
Marburg entry inh: blocks Marburg virus binding to or entry into cells. Marburg virus pseudotyped entry inhibition, cell reporter; control for the full effect not named in the record; about a third of the inactives were read at about 46 µM. hit rate 1.8% among 300,000. AID 540276. Potency, µM (top dose mostly 37.8 µM), inactives show at the top dose activity change, negative = inhibition, usual class: inhibitors; active = well fitted inhibition curve with a large enough effect; inconclusive = small, poorly fitted or top-dose-only effect, or effect the other way; inactive = flat fitted curve, though single readings scatter; tested in HEK293 cells; about a fifth of its hits are not listed in these tables; also: % is scaled to controls: 0 for no effect and ±100 for the full control effect; luciferase read-out
NS1 function inh: inhibitors of influenza NS1 protein function; Potency, µM (top dose mostly 46.1 µM), for the others: at the top dose activity, positive = more growth; S. cerevisiae slowed by influenza A NS1, growth recovery by OD600; hit rate 0.4% among 270,000; active means well fitted rising curve with a large enough effect; inconclusive means small, poorly fitted or top-dose-only effect; inactive means no such curve, though single readings can be large or run the other way; also: nearly all actives have a fitted effect of over 50% in size
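Compounds were scored for reversing the slow growth caused by influenza A NS1 in S. cerevisiae, measured by optical density at 600 nm. Assay medium contained 2% galactose at pH 6.0; NS1-free yeast of the same strain were the positive control.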
LASV entry inh: blocks Lassa virus binding to or entry into cells; Lassa virus pseudotype entry inhibition, cell reporter; control for the full effect not named in the record; Potency, µM (titrated, usually from 37.9 µM), for the others: at the top dose activity change, negative = inhibition, actives largely listed as inhibitors; hit rate 1.2% among 300,000; AID 540256; active means well fitted inhibition curve with a large enough effect; inconclusive means small, poorly fitted or top-dose-only effect, or effect the other way; inactive means flat fitted curve, though single readings scatter; tested in HEK293 cells; also: % is scaled to controls: 0 for no effect and ±100 for the full control effect; nearly all actives have a fitted effect of over 50% in size; luciferase read-out
* hit, by the source's call; ? = inconclusive; / = no result given; & = joins results of further samples; [ ] = remark or other dose. Unless noted, calls follow the shape of the dose curve; as a rule, active = well fitted curve in the direction sought with a large enough effect; inconclusive = small, poorly fitted or top-dose-only effect, or another doubt; inactive = no such curve, though single readings can be large; an effect the other way counts as inactive or inconclusive. Potency is read from the fitted curve at half-maximal effect.

SMILES | 2A StopGo | RE007 growth inh | Cruzain Triton | Cruzain noTriton | SARS PLpro yeast | Marburg entry inh | NS1 function inh | LASV entry inh
CC1=C(C(=O)OCC2CCCCC2)C(c2ccc(F)cc2F)CC(=O)N1 (stereo unspecified) | ? | / | -4.0% | 12% | / | ? | / | -3%[46.1 µM]
COc1ccc2[nH]c(C(=O)N3CCNCC3)cc2c1OC | -7% | -3% | / | / | 7% | 11%[46.1 µM] | 4% | 13%[46.1 µM]
c1ccc(CSCCc2ccncc2)cc1 | ? | 7% | 3.5%&6.1% | 4%&4% | -4% | 1% | -3%&-2% | 11%
CC(=O)Oc1ccc(C(=O)[C@H]2[C@H]3C(=O)N(c4ccc(C)cc4)C(=O)[C@H]3[C@@H]3C=CC=NN32)cc1 | 0% | 11% | -4.0% | ? | -8% | ? | ? | ?
Cc1nn(-c2ccccc2)c(OC(=O)c2cccc(Br)c2)c1S(=O)(=O)c1ccccc1 | 8% | / | 0.8% | -1% | / | 4%[46.1 µM] | / | 6%[46.1 µM]
O=C(NNS(=O)(=O)c1ccc(F)cc1)c1cccc(O)c1 | 33%[activator] | 13% | / | / | -2% | 5% | 10% | ?
CCCCCn1c(=O)c(F)cn(Cc2ccc(OC)c([N+](=O)[O-])c2)c1=O | ? | 7% | -4.7% | -5% | -2% | ? | -1% | -1%
CN(CC1CCN(CCc2cccc(C(F)(F)F)c2)CC1)C(=O)c1ccc(F)cc1F | -7% | 8% | / | / | -3% | / | 7% | /
Cc1c(CCC(=O)NCCc2ccc(Cl)cc2)c(=O)oc2c(C)c(O)ccc12 | -21% | / | -5.2% | 6% | / | 8%[46.1 µM] | / | 5%[46.1 µM]
Cc1cc(C(=O)N(C)C)sc1-c1ccccc1 | 45%[activator] | ? | -1.4% | -4% | -87% | ? | -54% | ?
Cc1nc2ccc(NC(=O)Cc3ccc(Br)cc3)cc2s1 | 2% | 0% | / | / | 0% | 7%[46.1 µM] | -3% | -4%
COc1ccc(NS(=O)(=O)c2cc(NC(=O)C3CC3)ccc2N2CCOCC2)cc1 | 95%[activator] | -12% | / | / | 0% | -20% | / | ?
COC(=O)C/C=C/[C@@H](C)[C@@H](/C=N/OC[C@H]1O[C@H](c2ccccc2)C=C[C@@H]1Oc1ccc(OC)cc1)OC | / | / | -0.7% | 18% | 3% | ? | -25% | ?
CCOc1ccc(NC(=O)CN2C(=O)C3CCCN3C2=O)cc1 (stereo unspecified) | 25% | -9% | -4.9% | -10% | 14% | / | -1% | /
COc1ccc(NC(=O)NNC(=O)c2ccc(Cl)cc2Cl)cc1OC | -16% | 0% | / | / | -5% | 18%[46.1 µM] | / | 17%
Cc1ccc2c(Cl)cc(Cl)c(OCC(=O)Nc3cccc(S(=O)(=O)N(C)C)c3)c2n1 | ? | -3% | -1.6% | 13µM* | -7% | 0% | -1% | -11%
Fc1cccc(Cl)c1CNc1ccc(N2CCCC2)cc1 | -9% | 8% | / | / | 0% | -22%[46.1 µM] | 5% | ?
CC(=O)Nc1ccc(S(=O)(=O)N(C2=NCC(C)S2)c2ccccc2)cc1 (stereo unspecified) | -12% | 3% | -3.6% | -12% | -2% | 16µM* | -13% | ?
O=C(c1ccccc1-n1cccc1)N1N=C(C(F)F)CC1(O)C(F)F (stereo unspecified) | -16% | 2% | -3.8% | -4% | -1% | -2% | -2% | 8%
O=C(c1ccc(F)cc1F)N1CCCC(c2nc(-c3ccc(F)cc3)no2)C1 (stereo unspecified) | -36% | -2% | / | / | -7% | -29%[46.1 µM] | -17% | ?
CCN1CCN(C(c2ccccc2Cl)c2c(O)cc(C)n(Cc3ccco3)c2=O)CC1 (stereo unspecified) | -24% | / | 2.4% | -28% | / | / | / | -1%[46.1 µM]
COC(=O)c1ccc(NC(=O)Nc2ccc(F)cc2)cc1 | -5% | -1% | -8.7% | 1% | -8% | 0% | -117% | 2%
Cc1ccc(C2C3=C(CC(C)(C)CC3=O)N=C3c4ccccc4C(=O)C32)cc1 (stereo unspecified) | ? | 0% | -6.0% | 2% | -15% | ? | ? | ?
COc1ccc(CCN2C(=O)CN(C3CCCCCC3)C(=O)C2c2ccc(Cl)cc2)cc1OC (stereo unspecified) | -15% | / | -0.4% | 25% | / | / | / | -18%[46.1 µM]
CSc1ncccc1C(=O)NC1CCN(Cc2ccccc2)CC1 | -19% | -11% | / | / | 6% | / | 19% | /
COc1cc2c(cc1O)C(SC)=NC(C)(C)C2 | 20µM* | 34% | -9.2% | -13% | 0% | 2%[46.1 µM] | -33% | 0%
O=C(CSc1ccc(-c2ccc(Br)cc2)nn1)N1CCOCC1 | -15% | -6% | / | / | -1% | 0%[46.1 µM] | / | -1%[46.1 µM]
CCN(CC)c1ccc(CNCCCSc2nnnn2C)cc1 | -15% | / | -0.1% | 2% | / | -17%[46.1 µM] | / | -9%[46.1 µM]
O=[N+]([O-])c1cccc(CSC2=NCCN2S(=O)(=O)c2ccccc2)c1 | ? | 4% | / | / | 1% | / | 1% | /
CC1(C)NC(=O)N(CC(=O)N2CCN(S(=O)(=O)c3ccccc3C(F)(F)F)CC2)C1=O | -9% | 0% | / | / | -5% | 29% | / | 11%
Cn1c(=O)c2sccc2n2c(CCC(=O)N3CCN(c4ccc(F)cc4)CC3)nnc12 | / | / | -2.0% | 2% | / | 6%[46.1 µM] | / | -4%[46.1 µM]
CN(C)S(=O)(=O)c1cccc(C(=O)NCC2CCCCC2)c1 | 22% | 14% | / | / | -3% | 8%[46.1 µM] | -2% | -19%
CN(C)S(=O)(=O)c1ccc(C(=O)NCc2ccco2)cc1 | -4% | 14% | / | / | 1% | -2%[46.1 µM] | -2% | -5%[46.1 µM]
CC1(c2ccc(OC(F)F)cc2)NC(=O)N(CC(=O)Nc2ccc(OC(F)F)cc2)C1=O (stereo unspecified) | -10% | 6% | / | / | 1% | -21%[46.1 µM] | -4% | 1%
Cc1sc2ncn(CC(=O)N3CCCC(C)C3)c(=O)c2c1S(=O)(=O)N1CCCCC1 (stereo unspecified) | -21% | -15% | / | / | 1% | 2%[46.1 µM] | -7% | 13%[46.1 µM]
CC(C)C(=O)Nc1cccc(C(=O)Nc2ccc(S(=O)(=O)Nc3nccs3)cc2)c1 | 11% | 2% | / | / | 1% | -1%[46.1 µM] | 3% | 18%[46.1 µM]
CCC(CC)C1=NN2C(=N)/C(=C\c3cc(C)n(-c4cccc(C)c4)c3C)C(=O)N=C2S1 | -14% | 2% | -8.2% | 25µM* | -15% | 12% | 10% | 17%
Cc1cc(/C=C2\SC(=S)N(Cc3ccco3)C2=O)c(C)n1-c1cccnc1 | 10% | 7% | -1.5% | ? | 2% | 21% | 19% | 11%
CCc1c(C)nc2c(C#N)c(C)[nH]n2c1=O | -24% | -2% | -0.7% | 2% | -21% | -4% | 5% | 0%
CCOC(=O)N1CCN(C(=O)c2ccc3c(=O)n(Cc4ccccc4)c(=S)[nH]c3c2)CC1 | -13% | -1% | -6.6% | ? | -10% | 0%&-2% | ? | -17%
Cc1ccccc1-n1c(/C=C/c2c(C)[nH]c3ccccc23)nc2ccccc2c1=O | ? | / | -8.0% | ? | / | / | / | ?
Cc1cc2nc(-c3cccc(NC(=O)c4ccc(Br)o4)c3C)oc2cc1C | / | -8% | -0.6% | 1% | 11% | -6% | 8% | 2%
CCC1(C)CC(=O)c2c(ccc3oc(C(=O)NCc4ccccc4)c(C)c23)O1 (stereo unspecified) | 26% | / | -8.0% | -2% | / | -27%[46.1 µM] | / | ?
Cn1ncc(Br)c1C(=O)N1CCCC1 | -13% | -5% | / | / | 9% | -16% | 1% | -1%
CN(C)/C=N/c1c(C#N)cnn1-c1ccccc1 | / | -10% | 1.6% | -5% | -1% | 0% | -16% | -5%
O=C(O)c1c(C(=O)O)c(-c2ccc(F)cc2)n2c1CCC2 | 1% | 10% | / | / | 1% | 10%[46.1 µM] | 2% | 14%[46.1 µM]
Cc1c(N2C(=O)c3cccc4cccc(c34)C2=O)cnn1C | -21% | 13% | / | / | 1% | 1% | 4% | 1%
C#CCNC(=O)C(C)c1ncc(C(F)(F)F)cc1Cl (stereo unspecified) | -11% | 29% | / | / | 0% | 16%[46.1 µM] | 6% | 2%
CCC12CN3CC(CC)(CN(C1)C3c1ccc(OCc3ccccc3)cc1)C2=O (stereo unspecified) | -21% | / | 0.2% | 2% | / | 6%[46.1 µM] | / | 8%[46.1 µM]
CCCCC1CC(CSc2ncn[nH]2)OC1=O (stereo unspecified) | -17% | -1% | 0.5% | -2% | 2% | -8% | -13% | 0%

Other entries follow:
SMILES | 2A StopGo | RE007 growth inh | Cruzain Triton | Cruzain noTriton | SARS PLpro yeast | Marburg entry inh | NS1 function inh | LASV entry inh
CCOC(=O)c1cnc2ccc(OCC)cc2c1Nc1ccc(OCc2ccccc2Cl)cc1 | -14% | / | -4.0% | -1% | / | / | / | -20%[46.1 µM]
Cc1cc2oc(C(=O)N(Cc3ccccc3)c3ccccn3)cc(=O)c2cc1Cl | 9% | -2% | / | / | -1% | / | -18% | /
CC1CCCCN1CCn1c(=S)[nH]c2cc3c(cc2c1=O)OCO3 (stereo unspecified) | 0% | 0% | / | / | -6% | -29%[46.1 µM] | / | 15%[46.1 µM]
NS(=O)(=O)c1ccc(O)c(N2C(=O)c3cccc4c(C(=O)O)ccc(c34)C2=O)c1 | 8% | 3% | / | / | 0% | 9%[46.1 µM] | 4% | 0%
Nc1c(S(=O)(=O)c2ccccc2)c2nc3ccccc3nc2n1Cc1ccco1 | 36%[activator] | 4% | 2.4% | -11% | -7% | ? | ? | ?
CCc1c(C)nc2ncnn2c1N1CCC(C(=O)N2CCN(c3ccc(F)cc3)CC2)CC1 | ? | 3% | -3.2% | ? | -3% | -14% | -46% | 4%
COc1ccc2cc(C(C)c3nc4ccccc4c(=O)n3N)ccc2c1 (stereo unspecified) | ? | 29% | -9.4% | -20% | ? | -18% | 0% | -6%
